Bioassay records: PubChem BioAssay, Broad Institute
Beta apoptosis: blocks beta cell apoptosis | INS-1E cytokine-induced death, ATP luminescence, 48 h; percent of positive-control rescue, neutral wells zero | protection from apoptosis, % (test concentration not listed) | actives 0.8% (n = 300,000) | AID 435005;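 active = all replicates at 75% or more, or half of them and the mean; inconclusive = half reach 75% but not the mean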;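 note: 0% = cytokine-treated negative control wells and 100% = positive control rescue; higher means more ATP so stronger rescue from cytokine killing; wells of about 40 µL received 100 nL stock; the first replicate is given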
FGF22 binding: shifts melting point of recombinant human FGF22 | Q9HCT0 | recombinant FGF22 thermal shift, SYPRO orange fluorescence; percent of sucrose octasulfate shift, DMSO zero | calls only at 9.99 µM | actives 1.5% (n = 340,000) | AID 651658;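 active = melting point raised past a set limit in the mean and every replicate; inconclusive = no clear call; three in four hits are not shown here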
Target sequence (Q9HCT0 whole entry, looked up): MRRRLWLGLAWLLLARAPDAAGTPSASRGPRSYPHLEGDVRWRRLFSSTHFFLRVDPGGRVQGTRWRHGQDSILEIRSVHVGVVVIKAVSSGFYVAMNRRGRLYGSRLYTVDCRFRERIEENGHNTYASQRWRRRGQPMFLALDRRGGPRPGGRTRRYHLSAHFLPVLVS
RanGTP-Impb inh: disruptors of Ran-importin-beta complex formation – biochemical, FRET, CFP-Ran, YFP-importin-beta, homogeneous, primary screen; inhibition, % (no concentration beside the values); actives 1.1% (n = 300,000); cell-free CFP-Ran/YFP-importin-beta FRET ratio; AID 2216;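 active = most replicates above 15%; inconclusive = exactly half above 15%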;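 note: 0% = DMSO wells and 100% = Ran loaded with GDP instead of GTP; wells of about 40 µL received 100 nL stock; the first replicate is given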
T cruzi inh: T. cruzi replication inhibition | T. cruzi beta-gal in NIH3T3, luminescence, 90 h | inhibition, % (concentration not given with the values) | actives 1.4% (n = 300,000) | AID 1885;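 active = mean inhibition across valid replicates above about 55%, limit read from the data; inconclusive = mean below that limit but half or more replicates reach it; inactive = mean below it, under half of replicates reach it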;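 note: signal also drops with host cell toxicity which is not excluded here; 0% = plate median of DMSO wells and 100% = zero luminescence signal; higher percent means less beta-gal luminescence so fewer parasites; stock transfer was 50 nL into about 50 µL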
MLL AF4-AF9 inh: MLL-AF4/AF9 protein interaction inhibition. AlphaScreen, biotin-AF4 peptide binding to FLAG-AF9. inhibition, % at 10 µM. P42568. AID 651704. actives 0.47% (n = 350,000);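 active = every replicate reaching a set inhibition limit, whatever the replicate mean, cut at about 25% in these data; inconclusive = mean inhibition reaches that limit but some replicates miss it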;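 note: 0% = plate neutral control median and 100% = total signal loss; the record names both 10 and 1 µM as test concentration; the first replicate is given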
Target sequence (P42568 whole entry, looked up): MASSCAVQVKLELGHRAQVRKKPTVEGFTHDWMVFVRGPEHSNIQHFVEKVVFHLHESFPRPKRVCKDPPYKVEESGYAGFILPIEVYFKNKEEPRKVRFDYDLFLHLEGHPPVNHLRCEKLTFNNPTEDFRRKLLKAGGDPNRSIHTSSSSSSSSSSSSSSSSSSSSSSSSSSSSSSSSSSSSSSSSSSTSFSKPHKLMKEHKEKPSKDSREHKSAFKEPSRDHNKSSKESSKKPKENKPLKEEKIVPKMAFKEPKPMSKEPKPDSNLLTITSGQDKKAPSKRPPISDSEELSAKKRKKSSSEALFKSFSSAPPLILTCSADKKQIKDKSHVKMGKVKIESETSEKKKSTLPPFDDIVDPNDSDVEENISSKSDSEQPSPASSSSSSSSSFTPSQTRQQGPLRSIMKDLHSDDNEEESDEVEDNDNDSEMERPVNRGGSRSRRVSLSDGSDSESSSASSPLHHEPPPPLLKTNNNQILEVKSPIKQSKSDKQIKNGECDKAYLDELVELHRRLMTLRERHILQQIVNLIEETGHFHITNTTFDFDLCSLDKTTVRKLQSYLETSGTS
Calb FLC: affects C. albicans growth with fluconazole | C. albicans CaCi-2 (fluconazole-resistant clinical isolate) + fluconazole, Alamar Blue growth, 48 h | growth inhibition, % (no concentration beside the values) | actives 0.57% (n = 300,000);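 active = most replicates above 75%; inconclusive = exactly half above 75%; inactive = most below 75%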;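 note: all wells also contain fluconazole at 8 µg/ml as a sub-toxic cotreatment; 0% = median of DMSO wells and 100% = median of geldanamycin control wells; wells of about 8 µL received 7.5 nL stock; the first replicate is given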
ALR inh: inhibitors of human sulfhydryl oxidase ALR. P55789. actives 3.8% (n = 290,000). inhibition, % (concentration not given with the values). purified ALR, DTT oxidation, H2O2 HRP-luminol luminescence;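 active = mean and each replicate at 75% or more; inconclusive = only one of the two met; inactive = neither met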;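 note: stock transfer was 7.5 nL into about 7.5 µL; 0% = neutral wells and 100% = wells with inactivated enzyme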
Target sequence (P55789 whole entry, looked up): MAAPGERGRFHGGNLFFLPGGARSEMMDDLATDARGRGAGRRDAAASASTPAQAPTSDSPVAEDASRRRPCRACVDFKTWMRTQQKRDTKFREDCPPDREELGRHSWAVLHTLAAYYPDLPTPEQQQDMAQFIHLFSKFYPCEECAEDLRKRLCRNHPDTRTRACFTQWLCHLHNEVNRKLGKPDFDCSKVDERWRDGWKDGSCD
rRNA inh HTS: inhibits bacterial ribosomal RNA function over humanized ribosomes; AID 720706; GFP signal change (wild-type ribosome), % (no concentration beside the values); actives 1.6% (n = 350,000); E. coli WT GFP vs humanized-ribosome RFP mutants, fluorescence, 24 h; active compounds read low; DMSO median 0, no signal -100;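 active = significant combined selectivity score with lowered wild-type GFP, culture density cut under 30%, mutant RFP and density less affected; inactive = any of these conditions unmet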; note: one replicate is shown; some compounds called inactive have numbers as strong as hits
rRNA inh HTS OD600: recorded beside rRNA inh HTS, whose call it bears; OD600 change, %; measured here: OD600 growth;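 optical density of the mix in the first replicate; 0 = DMSO median and -100 = no signal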
rRNA inh HTS RFP: also measured in rRNA inh HTS; calls as there; RFP signal change, %; measured here: RFP humanized mutant strains;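 first replicate; 0 = DMSO median and -100 = no signal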
Active calls of the source: *.

O=C(Nc1ccncc1)c1cc(S(=O)(=O)N2CCOCC2)ccc1Cl was read as Beta apoptosis -1, FGF22 binding inactive, RanGTP-Impb inh 3.0, T cruzi inh 3, MLL AF4-AF9 inh -34, Calb FLC -10, rRNA inh HTS -2, rRNA inh HTS OD600 -3 and rRNA inh HTS RFP -1.4.
For CC(=O)N1CCN=C1SCc1ccccc1F the results were Beta apoptosis -12, FGF22 binding inactive, RanGTP-Impb inh 3.0, T cruzi inh 2, MLL AF4-AF9 inh -2.5, Calb FLC 16, ALR inh 99*, rRNA inh HTS 1, rRNA inh HTS OD600 -1 and rRNA inh HTS RFP -2.1.
Screening CCOC(=O)c1ccsc1NC(=O)c1ccco1 returned Beta apoptosis -1, FGF22 binding inactive, RanGTP-Impb inh 6.7, T cruzi inh -3, MLL AF4-AF9 inh -2.2, Calb FLC 18, ALR inh 3, rRNA inh HTS 14, rRNA inh HTS OD600 12 and rRNA inh HTS RFP 1.7.
`Cc1[nH]c(=O)[nH]c(=O)c1S(=O)(=O)Nc1ccc(F)cc1Cl` gave Beta apoptosis -5, FGF22 binding inactive, RanGTP-Impb inh 0.1, T cruzi inh -15, MLL AF4-AF9 inh 1.0, Calb FLC 6, ALR inh -1, rRNA inh HTS 13, rRNA inh HTS OD600 10 and rRNA inh HTS RFP 5.3.
`CCOc1ccc2oc(C(=O)N3CC(C)OC(C)C3)c(C)c2c1` (stereo not drawn) gave Beta apoptosis 1, FGF22 binding inactive, RanGTP-Impb inh inconclusive, T cruzi inh 10, MLL AF4-AF9 inh -0.7, Calb FLC 6, ALR inh 0, rRNA inh HTS 0, rRNA inh HTS OD600 1 and rRNA inh HTS RFP 4.0.
`Cc1cc(C)c(OCC(=O)Nc2cc(C(=O)O)cc(C(=O)O)c2)cc1C` gave Beta apoptosis -2, RanGTP-Impb inh 3.2, T cruzi inh -6, MLL AF4-AF9 inh -8.5, Calb FLC 12, rRNA inh HTS 11, rRNA inh HTS OD600 -3 and rRNA inh HTS RFP -5.2.
`CC(=O)/C=C/c1ccc2ccccc2n1` gave Beta apoptosis -12, RanGTP-Impb inh 3.7, T cruzi inh -31, Calb FLC 1 and ALR inh 98*.
For O=C(CCC(=O)N(c1cccc(F)c1)C(C(=O)NC1CCCC1)c1ccncc1)Nc1cccnc1 (stereo not drawn) the results were Beta apoptosis -3, RanGTP-Impb inh -1.1, T cruzi inh -16, Calb FLC -2 and ALR inh -10.
For Cn1c(=O)c2c(nc(NCC3CCCO3)n2C)n(C)c1=O (stereo not drawn) the results were Beta apoptosis -4, RanGTP-Impb inh inconclusive, T cruzi inh -19, Calb FLC 7 and ALR inh 8.
For CCOC(=O)C1=NOC2C(=O)N(c3ccc(Cl)cc3Cl)C(=O)C12 (stereo not drawn) the results were Beta apoptosis -1, FGF22 binding inactive, RanGTP-Impb inh -0.5, T cruzi inh -2, MLL AF4-AF9 inh -1.1, Calb FLC 0, ALR inh -1, rRNA inh HTS 17, rRNA inh HTS OD600 13 and rRNA inh HTS RFP 1.4.
For O=C1NC(=Nc2ccccc2Cl)S/C1=C\c1cccc([N+](=O)[O-])c1O the results were FGF22 binding inactive, RanGTP-Impb inh -12, T cruzi inh 5, MLL AF4-AF9 inh -2.7, Calb FLC 95*, ALR inh 60, rRNA inh HTS -41, rRNA inh HTS OD600 -63 and rRNA inh HTS RFP -6.0.
For CCOC(=O)c1c(N)c(C#N)nn1-c1ccccc1C(=O)OC the results were FGF22 binding inactive, RanGTP-Impb inh 0.7, T cruzi inh -20, MLL AF4-AF9 inh 3.8, Calb FLC 3, rRNA inh HTS 11, rRNA inh HTS OD600 4 and rRNA inh HTS RFP -1.8.
Cc1cccc(CC2CC(=O)N(c3nc4ccccc4s3)C2=O)c1 (stereo not drawn) was read as Beta apoptosis -2, FGF22 binding inactive, RanGTP-Impb inh 2.1, T cruzi inh -13, MLL AF4-AF9 inh -1.8, Calb FLC -6, ALR inh 3, rRNA inh HTS -8, rRNA inh HTS OD600 -4 and rRNA inh HTS RFP 0.7.
COc1ccc(CC(=O)N2CCc3cc(OC)c(OC)cc3C2C)c(OC)c1 (stereo not drawn) was read as Beta apoptosis -4, RanGTP-Impb inh 2.5, T cruzi inh -1, Calb FLC -11, ALR inh -3, rRNA inh HTS -11, rRNA inh HTS OD600 -19 and rRNA inh HTS RFP 0.6.
Screening Cc1c(CCC(=O)O)c(=O)oc2cc(OCc3ccc(Br)cc3)ccc12 returned Beta apoptosis 0, FGF22 binding inactive, RanGTP-Impb inh 2.8, T cruzi inh -19, MLL AF4-AF9 inh -2.1, Calb FLC 7, ALR inh -18, rRNA inh HTS 2, rRNA inh HTS OD600 2 and rRNA inh HTS RFP -1.5.

By substructure, the entries above containing a COOH group
`Cc1cc(C)c(OCC(=O)Nc2cc(C(=O)O)cc(C(=O)O)c2)cc1C` gave Beta apoptosis -2, RanGTP-Impb inh 3.2, T cruzi inh -6, MLL AF4-AF9 inh -8.5, Calb FLC 12, rRNA inh HTS 11, rRNA inh HTS OD600 -3 and rRNA inh HTS RFP -5.2.
Screening Cc1c(CCC(=O)O)c(=O)oc2cc(OCc3ccc(Br)cc3)ccc12 returned Beta apoptosis 0, FGF22 binding inactive, RanGTP-Impb inh 2.8, T cruzi inh -19, MLL AF4-AF9 inh -2.1, Calb FLC 7, ALR inh -18, rRNA inh HTS 2, rRNA inh HTS OD600 2 and rRNA inh HTS RFP -1.5.

The listing continues:
For Cc1ccc(CNS(=O)(=O)c2cn(C)c(=O)n(C)c2=O)cc1 the results were Beta apoptosis 2, FGF22 binding inactive, RanGTP-Impb inh -5.0, T cruzi inh -14, MLL AF4-AF9 inh -1.7, Calb FLC -1, ALR inh -1, rRNA inh HTS 0, rRNA inh HTS OD600 5 and rRNA inh HTS RFP -0.3.
Screening Oc1ccccc1C(=S)N1CCCC1 returned Beta apoptosis 1, FGF22 binding inactive, RanGTP-Impb inh inconclusive, T cruzi inh -23, MLL AF4-AF9 inh 3.0, Calb FLC -10, rRNA inh HTS 1, rRNA inh HTS OD600 -2 and rRNA inh HTS RFP -1.8.
COc1ccc(CNC(=O)C2CCN(S(=O)(=O)c3ccc4c(c3)N(C(C)=O)CCO4)CC2)cc1 was read as Beta apoptosis 2, FGF22 binding inactive, RanGTP-Impb inh -2.8, T cruzi inh -11, MLL AF4-AF9 inh -0.2, Calb FLC 5, ALR inh -2, rRNA inh HTS -1, rRNA inh HTS OD600 1 and rRNA inh HTS RFP 1.1.
Cn1cc(Br)c(C(=O)Nc2c(F)c(F)c(F)c(F)c2F)n1 was read as Beta apoptosis 12, FGF22 binding inactive, RanGTP-Impb inh 5.2, T cruzi inh -16, MLL AF4-AF9 inh -2.4, Calb FLC -8 and ALR inh -6.
`Cc1cc(C)c(OCC(=O)N/N=C/c2ccco2)c(C)c1` gave Beta apoptosis -6, RanGTP-Impb inh -4.3, T cruzi inh -14, Calb FLC 7 and ALR inh -5.
CCN(C)Cc1c(C(=O)N2CCc3ccccc3C2)nc2ccc(Cl)cn12 was read as Beta apoptosis -3, FGF22 binding inactive, RanGTP-Impb inh 3.7, T cruzi inh 19, MLL AF4-AF9 inh 1.5, Calb FLC -13, ALR inh -15, rRNA inh HTS 0, rRNA inh HTS OD600 -3 and rRNA inh HTS RFP -0.4.
C=C(C)[C@@H]1CC=C(CN2CCN(Cc3ccccc3)CC2)CC1 was read as Beta apoptosis 3, FGF22 binding inactive, RanGTP-Impb inh -0.6, T cruzi inh 39, MLL AF4-AF9 inh 8.0, Calb FLC -3, ALR inh -19, rRNA inh HTS 3, rRNA inh HTS OD600 -6 and rRNA inh HTS RFP -0.1.
For Cc1nn(C)c(C)c1NC(=O)c1ccccc1NC(=O)Nc1ccccc1 the results were Beta apoptosis -6, FGF22 binding inactive, RanGTP-Impb inh 0.1, T cruzi inh -14, MLL AF4-AF9 inh 0.1, Calb FLC -8, ALR inh -2, rRNA inh HTS 3, rRNA inh HTS OD600 0 and rRNA inh HTS RFP 2.0.
For CN(C)S(=O)(=O)N1CCC(Oc2cccc(C(=O)NC3CCCCCC3)c2)CC1 the results were Beta apoptosis 55, FGF22 binding inactive, RanGTP-Impb inh -0.9, T cruzi inh -6, MLL AF4-AF9 inh -1.6, Calb FLC 0, ALR inh 0, rRNA inh HTS -21, rRNA inh HTS OD600 -26 and rRNA inh HTS RFP -4.2.
Screening O=C(NCCCCCCOC1=NS(=O)(=O)c2ccccc21)C(=O)Nc1ccccc1 returned Beta apoptosis 12, FGF22 binding inactive, RanGTP-Impb inh 0.5, T cruzi inh -21, MLL AF4-AF9 inh -3.3, Calb FLC -5, ALR inh 1, rRNA inh HTS -3, rRNA inh HTS OD600 4 and rRNA inh HTS RFP -3.0.
For CC(=O)Nc1ccc(C(=O)OC2CCCCC2=O)cc1 (stereo not drawn) the results were Beta apoptosis 0, RanGTP-Impb inh 0.0, T cruzi inh 11, Calb FLC -3 and ALR inh -4.
For COc1ccc(C(=O)Nc2ccccc2C(=O)NC(Cc2ccc(O)cc2)C(=O)NNC(=O)c2ccncc2)cc1 (stereo not drawn) the results were Beta apoptosis -3, FGF22 binding inactive, RanGTP-Impb inh 2.0, T cruzi inh -2, MLL AF4-AF9 inh 0.8, Calb FLC 5, ALR inh 10, rRNA inh HTS -2, rRNA inh HTS OD600 -5 and rRNA inh HTS RFP 1.0.
For CC(/C=C/c1ccccc1)=N\NC(=O)C1CC1(C)c1ccccc1 (stereo not drawn) the results were Beta apoptosis 3, RanGTP-Impb inh -0.7, T cruzi inh 27 and Calb FLC -13.
Screening Cn1c(CNC(=O)c2ccccc2F)nnc1SCC(=O)N1CCN(c2ccccc2)CC1 returned Beta apoptosis -2, FGF22 binding inactive, RanGTP-Impb inh -2.1, T cruzi inh 5, MLL AF4-AF9 inh -1.4, Calb FLC -2, ALR inh 11, rRNA inh HTS 20, rRNA inh HTS OD600 19 and rRNA inh HTS RFP 1.1.
For CC(=O)NC(c1ccccc1)c1cc(Cl)c2cccnc2c1O (stereo not drawn) the results were Beta apoptosis 98*, FGF22 binding inactive, RanGTP-Impb inh -6.1, T cruzi inh inconclusive, MLL AF4-AF9 inh 0.5, Calb FLC 105*, ALR inh -7, rRNA inh HTS -45, rRNA inh HTS OD600 -74 and rRNA inh HTS RFP -18.
For O=c1[nH]c(=S)[nH]cc1S(=O)(=O)c1cccc(Cl)c1 the results were Beta apoptosis -3, FGF22 binding inactive, RanGTP-Impb inh 1.5, T cruzi inh -3, MLL AF4-AF9 inh -6.1, Calb FLC 2, ALR inh 16, rRNA inh HTS 16, rRNA inh HTS OD600 6 and rRNA inh HTS RFP 2.6.
For O=C(Nc1c2c(nn1-c1ccccc1)CS(=O)(=O)C2)c1cc2ccccc2o1 the results were Beta apoptosis 4, FGF22 binding inactive, RanGTP-Impb inh 4.1, T cruzi inh 17, MLL AF4-AF9 inh -0.1, Calb FLC 6, ALR inh -6, rRNA inh HTS -6, rRNA inh HTS OD600 -3 and rRNA inh HTS RFP -0.6.

The list is partial (hit frequency here may not be typical).
